# VACV mCherry inh: inhibitors of vaccinia virus infection (mCherry reporter signal); Vaccinia virus mCherry reporter infection, fluorescence; about a quarter of the inactives have no number; Potency, µM (titrated, usually from 36.5 µM), for the others: at the highest dose activity change, negative = inhibition, usual class: inhibitors; 310,000 compounds, 0.63% hits; AID 720579; active = well fitted inhibition curve with a large enough effect; inconclusive = small, poorly fitted or top-dose-only effect; inactive = no such curve, though single readings can be large or run the other way; tested in A549 cells; also: nearly all actives have a fitted effect of over 35% in size; inactives centre near -10
# VACV Venus inh: vaccinia inhibition (Venus reporter) | Potency, µM (series often up to 36.5 µM), inactives show at the highest dose activity change, negative = inhibition, usual class: inhibitors | Vaccinia virus Venus reporter expression, fluorescence | 330,000 compounds, 0.46% hits | AID 720580; active means well fitted inhibition curve with a large enough effect; inconclusive means small, poorly fitted or top-dose-only effect; inactive means no such curve, though single readings can be large or run the other way; tested in A549 cells; also: nearly all actives have a fitted effect of over 30% in size; inactives centre near -10
# Starred values were filed as active, the others as inactive; i = inactive; ? = inconclusive; nt = not tested or not shown; & = joins results of further samples; [ ] = remark or other dose. % is scaled to controls: 0 for no effect and ±100 for the full control effect; potency is read from the fitted curve at half-maximal effect.
SMILES,VACV mCherry inh,VACV Venus inh
COc1cc(OC)c(C2=NOC(C(=O)O)C2)cc1Cl (stereo not given),-1.6%,-13.2%
Cc1ccsc1/C=N\NC(=O)c1n[nH]c2c1CCC2,?,?
COc1cccc(COc2ccc(N(C)S(=O)(=O)c3ccccc3)cc2)c1,-9.8%,-16.3%
O=C(OCC(=O)N1CCN(c2ccccc2)CC1)c1ccco1,-12.8%,-2.3%
COc1cccc(NC(=O)C2=COCCO2)c1,-15.8%,-7.4%
CS(=O)(=O)N1CCN(c2ccccc2NC(=O)c2ccc3c(c2)OCCO3)CC1,-5.6%,-11.9%
Fc1ccc(-c2csc3ncnc(Cl)c23)cc1,-20.9%,-14.6%
CN1CCN(C(=O)NC2CCCCC2)CC1,-9.6%,-11.6%
COc1cc(NC(=S)NCc2cccnc2)c(OC)cc1Cl,i,-12.1%
Nc1nonc1C(=O)NCCc1ccccc1,?,-15.8%
CN(Cc1cccc(F)c1)C(=O)Cc1ccc(S(=O)(=O)N2CCOCC2)s1,i,-4.0%
COCCN(C(=O)Cc1cccs1)C(C(=O)NC1CCCC1)c1cc(OC)c(OC)c(OC)c1 (stereo not given),-9.7%,-8.4%
Cc1c(NC(=O)Nc2cccc(Cl)c2Cl)c(=O)n(-c2ccccc2)n1C,-6.2%,2.4%
O=C(Cc1coc2cc(O)ccc12)NNC(=O)c1ccc(Br)s1,-7.6%,-5.8%
Cc1cc(-c2ccc(C)c(S(=O)(=O)Nc3cccc(C#N)c3)c2)on1,i,-18.8%
CCc1noc(C)c1C(=O)N1CCCC(N2CCN(c3cccc(Cl)c3)CC2)C1 (stereo not given),i,-8.7%
CCOC(=O)CC(=O)CSc1ccc2nnc(-c3ccc(C)cc3)n2n1,-13.8%,-6.0%
O=C(Nc1cccc(Br)c1)c1cc(S(=O)(=O)N2CCCCC2)c[nH]1,-4.4%,-1.6%
Cc1cccc(Cn2c(N3CCN(c4ccccc4)CC3)nc3c2c(=O)n(C)c(=O)n3C)c1,-9.3%,-3.1%
CCOC(=O)C1CCN(C(=O)c2ccc(N(C)S(=O)(=O)c3ccc(OC)cc3)cc2)CC1,i,-5.6%
CCC(=O)Oc1ccc(C(=O)Nc2cccc(C(=O)c3ccccc3)c2)cc1,nt,?
CCOC(=O)C(O)(c1ccc(N(C)C(=O)COc2ccccc2)cc1)C(F)(F)F (stereo not given),-14.0%,-12.7%
O=C1CC(NS(=O)(=O)c2ccc([N+](=O)[O-])cc2)CN1c1ccc(Cl)cc1 (stereo not given),-23.8%,?
C/C=C1/C[C@@H](C)[C@](O)(CO)C(=O)OCC2=CCN3CC[C@@H](OC1=O)[C@@H]23,-4.4%,-7.7%
O=C(Cc1ccccc1)NC(Oc1ccccc1Cl)C(Cl)(Cl)Cl (stereo not given),-4.2%,-2.4%
COc1cccc(CCNc2ncnc3sc(C(=O)N4CCOCC4)c(C)c23)c1,i,-15.1%
O=C1NC2(CCCCCC2)C(=O)N1Cc1ccccc1Cl,-9.8%,-5.9%
CCc1ccc(NC(=O)Cn2nnc(C(=O)Nc3ccc(F)cc3)c2N)cc1,i,-5.1%
C[C@H]1CN([C@@H](C)CO)C(=O)CCCn2cc(nn2)CO[C@@H]1CN(C)S(=O)(=O)c1ccc(-c2ccccc2)cc1,-3.9%,-12.2%
CCOC(=O)C1(Cc2cccc(OC)c2)CCN(Cc2ccccc2OC)CC1,-19.3%,-16.3%
COc1cc(-c2nc(C(=O)NCC3CCCO3)cc3c2[nH]c2ccccc23)cc(OC)c1OC (stereo not given),?,?
COC(=O)c1c(C)[nH]c(C)c1C(=O)c1ccccc1Cc1ccccc1,-14.8%,-9.7%
CCOc1ccc(C(=O)C(C)OC(=O)c2nc(Cl)ccc2Cl)cc1 (stereo not given),-11.9%,-15.0%
O=C(C(Sc1ccccc1)c1ccccc1)N1CCN(c2ccccc2)CC1 (stereo not given),-17.8%,-24.0%
CCOC(=O)C1=NOC(CNC(=O)c2ccccc2Cl)C1 (stereo not given),i,-7.2%
O=C(Nc1ccc(OCc2ccccc2)cc1)Nc1nnc([C@H]2C[C@H](O)[C@@H](CO)O2)s1,-14.7%,-15.5%
Cc1cccc(NP(=O)(Oc2ccccc2)Oc2ccccc2)c1C,-22.7%,-22.3%
CC(C)OC(=O)c1cccc(C(=O)Oc2ccc(Br)cc2)n1,-8.8%,-2.7%
COc1cc(CCc2ccccc2)c(C(=O)O)c(O)c1C/C=C(/C)CCC=C(C)C,i,-4.0%
Cc1cc(C(=O)OC(C)C(=O)NC2CCCCC2C)c2ccccc2n1 (stereo not given),i,-5.1%
O=C(NCc1cccnc1)c1ccc(-c2ccc(F)c(F)c2)c2ccoc12,?,-24.7%
C#CCN(C(=O)CC1C(=O)NCCN1C/C=C/c1ccccc1)C1CCCCC1 (stereo not given),-19.2%,-15.4%
CCc1cc(C(=O)Nc2cc(S(=O)(=O)N3CCCCC3)ccc2N2CCN(C)CC2)sc1C,?,?
C=C(C)c1cccc(C(C)(C)NC(=O)Nn2cnnc2)c1,-11.5%,-5.2%
Cc1nc2ccccc2nc1NS(=O)(=O)c1ccc(N)cc1,i,-6.4%

# Grouped by structure, the compounds so far containing fluorine
SMILES,VACV mCherry inh,VACV Venus inh
Fc1ccc(-c2csc3ncnc(Cl)c23)cc1,-20.9%,-14.6%
CN(Cc1cccc(F)c1)C(=O)Cc1ccc(S(=O)(=O)N2CCOCC2)s1,i,-4.0%
CCOC(=O)C(O)(c1ccc(N(C)C(=O)COc2ccccc2)cc1)C(F)(F)F (stereo not given),-14.0%,-12.7%
CCc1ccc(NC(=O)Cn2nnc(C(=O)Nc3ccc(F)cc3)c2N)cc1,i,-5.1%
O=C(NCc1cccnc1)c1ccc(-c2ccc(F)c(F)c2)c2ccoc12,?,-24.7%

# (next part)
SMILES,VACV mCherry inh,VACV Venus inh
CCN(CC)/C(=N\S(=O)(=O)c1ccc(F)cc1)c1ccccc1,-12.6%,-6.6%
Cc1cc(C)n2c(SCC(=O)NC3CCCC(C)C3C)nnc2n1 (stereo not given),i,-1.8%
CCOC(=O)c1c(NC(=O)c2ccccc2C(=O)O)sc2c1CCCC2,-5.3%,-3.9%
CCOC(=O)C1(CC2CCCCO2)CCN(Cc2c(C)cc(C)cc2-n2cccn2)CC1 (stereo not given),i,-8.0%
COc1cc(C(=O)NCC(=O)OCC(=O)Nc2ncc(Cl)cc2Cl)cc(OC)c1OC,0.0%,-0.8%
COc1ccc(NC(=O)c2ccco2)cc1NC(=O)c1cc(OC)c(OC)c(OC)c1,-6.8%,-0.1%
O=C(Nc1ccccc1N1CCCC1)C1CCCO1 (stereo not given),i,-11.2%
O=C(COC(=O)C1CCCCC1C(=O)N1CCc2ccccc21)NCc1ccco1 (stereo not given),?,-24.2%
Cc1ccc(OCC(=O)O/N=C(\N)c2ccccn2)cc1,-14.3%,-3.8%
O=C(CCN1C(=O)/C(=C\c2ccccc2)SC1=S)NNC(=O)c1cccnc1,-6.5%,-8.3%
COc1ccc(CCN)cc1S(N)(=O)=O,-4.3%,-6.0%
COc1ccc(NC(=O)Nc2c(C)n(C)n(-c3ccccc3)c2=O)cc1,-12.1%,-7.7%
CCOC(=O)c1cc(-c2ccc(F)cc2)n(CC(=O)NCc2cccnc2)c1C,-18.3%,-11.5%
O=C(Nc1ccccn1)C1CCN(S(=O)(=O)c2ccccc2)CC1,14.8%,-1.3%
CCc1sc(Nc2cccc(C)c2C)nc1-c1cc2cccc(OC)c2oc1=O,-7.8%,-8.0%
O=C1C=C(NCC2CCCO2)C2(CCCCC2)O1 (stereo not given),-1.1%,-4.0%
COc1ccccc1/C=C/C(=O)OCC(=O)Nc1nnc(-c2ccccc2)o1,-18.1%,-17.5%
COC(=O)c1c(C)cc(C)n2c1nc1ccccc12,nt,?
CCCN(CCC)CCNC(=O)C1CCN(c2nc3ccc(CC)cc3s2)CC1,-10.3%[7.34 µM],-4.5%[7.34 µM]
Cc1ccc(C(=O)C2OC(=O)C(C)(C)C(=O)C2(C)C)cc1 (stereo not given),nt,-18.6%
O=C(NCc1ccccc1)C(c1ccccc1F)N(C(=O)c1csnn1)C1CCCC1 (stereo not given),-3.1%,8.9%
COc1ccc2ccccc2c1C(=O)/C=C\c1ccoc1,-24.5%,-26.4%
CCC1C(=O)N=C(SCC(=O)Nc2ccc(S(N)(=O)=O)cc2)NC1=O (stereo not given),i,-16.6%
CCOc1ccc(NC(=S)N(CCOC)C(C)c2cccnc2)cc1 (stereo not given),-11.6%,-11.9%
CCOc1ccccc1/C=C/C(=O)c1ccc(Cl)cc1,-11.4%,-6.4%
COCCCNC(=O)/C(C#N)=C/c1cccc(NC(=O)c2ccccc2Cl)c1,-0.6%,-5.4%
Cc1cc2c3c(ccc(C)c3n1)N=CN2c1ccccc1,nt,-28.7%
CC(=O)OCC1CC(COC(C)=O)C(COC(C)=O)CC1COC(C)=O (stereo not given),-17.6%,-5.8%
CCCn1c(=S)[nH]c2cc(C(=O)N3CCN(c4ccc(F)cc4)CC3)ccc2c1=O,-4.8%,-20.8%
COc1ccc(OC)c(CCNC(=O)c2cc3c(=O)oc4ccc(C)cc4c3s2)c1,-6.7%,-9.9%
Cc1ccc(S(=O)(=O)NCc2ccccc2Br)cc1,-8.8%,-6.7%
COc1ccc2oc(-c3ccc(C)c(NC(=O)c4ccc(-c5ccccc5[N+](=O)[O-])o4)c3)nc2c1,-27.1%,?
CCOC(=O)c1c(C)n(C)c2ccc(OCC(O)CN(CC)CC)cc12 (stereo not given),-6.4%,-14.2%
COCc1cc(C)nc(SCc2nc3ccccc3c(=O)[nH]2)c1C#N,-7.2%,-29.8%
COc1ccc(S(=O)(=O)N2CCOCC2)cc1NC(=O)CSc1nc(C)c(C)c(C)n1,8.3%,9.7%
Nc1nonc1-n1nnc(C(=O)N/N=C/c2cccc(F)c2)c1CN1CCCC1,i,-2.0%
Cc1cccc(OCC(=O)NC2CCCC2)c1,-11.9%,-4.3%
COc1cccc(C2=NN(C(C)=O)C(c3cn(-c4ccccc4)nc3-c3cccs3)C2)c1 (stereo not given),-8.2%,-13.0%
CCOC(=O)/C=C1\SCC(=O)N1CC(=O)Nc1cccc(F)c1,-6.9%,9.5%
O=C(Nc1ccccc1)C(=O)c1c[nH]c2ccccc12,-21.1%,-21.7%
COc1ccc(C(=O)N/C(=C\c2cn(C)c3ccccc23)C(=O)OCCN(C)C)cc1,i,-17.0%
Cc1cc(C)cc(NC(=O)c2cc(C)nc3ccccc23)c1,-15.5%,-11.1%
CCC1(c2ccccc2)NC(=O)N(CC(=O)Nc2ccccc2C(=O)NC2CC2)C1=O (stereo not given),-0.5%,-20.0%
NC[C@H](Cc1ccccc1)NCCc1cc(C(F)(F)F)cc(C(F)(F)F)c1,-9.1%,?
Cc1cc(NC(=O)CS(=O)(=O)c2cn(Cc3ccc(F)cc3)c3ccccc23)no1,?,?
Nc1ccn([C@@H]2O[C@H](C(=O)NCCCN3CCCC3=O)[C@@H](O)[C@H]2O)c(=O)n1,34.4%[activator],7.1%
COc1ccc(C(=O)C[n+]2cc(-c3ccc(OC)cc3)n3c2CCCC3)cc1,-16.7%&-0.5%,?
O=C(Nc1ccccc1F)c1ccc(Cn2nc(N3CCN(c4ccccc4)CC3)ccc2=O)o1,?,-12.9%
COc1ccc(C(C(=O)NCC2CCCO2)N(C(=O)CNC(=O)c2ccco2)c2ccc(C)c(C)c2)cc1OC (stereo not given),?,-24.1%
CCN(CC)c1ncc(C)c(=O)[nH]1,nt,-26.9%
CCOc1ccc(CN2CCNC(=O)C2CC(=O)NCCCC2CCCC2)cc1 (stereo not given),?,-20.4%
CC1Sc2ccc(S(=O)(=O)CCC(=O)NC3CCCCC3C)cc2NC1=O (stereo not given),-14.8%[7.34 µM],-25.3%[7.34 µM]
COc1ccc(Cl)cc1-c1nc(SCC(=O)NC2CC2)n[nH]1,-0.2%,-5.5%
COc1cccc(N2C(=O)CC(NNC(=O)c3cccs3)C2=O)c1 (stereo not given),i,-2.5%
CCC/C=C(\CCC)C(NC(=O)OCC(C)C)c1ccc(C(=O)OC)cc1 (stereo not given),i,-10.2%
O=C(NCc1ccccc1)c1ccc(C2SCC(=O)N2Cc2ccccc2)cc1 (stereo not given),nt,-18.0%
CC(=O)N1N=C(c2ccc(C)cc2)CC1c1ccc2c(c1)OCO2 (stereo not given),-14.7%,-22.2%
Cc1nnc(NC(=O)c2ccc(-c3cccc(C(F)(F)F)c3)o2)s1,-13.4%,-4.8%
Cn1cccc1C(=O)NC(=O)COC(=O)c1ccccc1O,-13.9%,-5.4%
Cc1cc(N2C(=O)C(=O)/C(=C(/O)c3ccc(F)cc3)C2c2ccc(Cl)cc2)no1 (stereo not given),-19.3%,-7.7%

# Profiles from above. Screens in order: VACV mCherry inh, VACV Venus inh
# Listed for COc1ccc(C(C(=O)NCC2CCCO2)N(C(=O)CNC(=O)c2ccco2)c2ccc(C)c(C)c2)cc1OC (stereo not given) : ?, -24.1%
# Listed for Cn1cccc1C(=O)NC(=O)COC(=O)c1ccccc1O : -13.9%, -5.4%

# New compounds follow
SMILES,VACV mCherry inh,VACV Venus inh
Cc1nc(SCC(=O)N2CC(C)OC(C)C2)nc(C)c1C (stereo not given),-1.0%,-10.1%
COc1ccc2c(=O)cc(CO)oc2c1,-5.0%,-11.8%
O=[N+]([O-])c1cc(-c2nc(-c3ccccc3)no2)ccc1N1CCCCC1,-4.7%,-5.4%
O=S(=O)(N1CCCCCC1)N1CCNCC1,i,-4.4%
CN1CCC(NC(=O)CCc2ccccc2)CC1,-13.5%,-10.8%
Cc1cccc2cc(COC(=O)C(C)C)c(=O)[nH]c12,nt,-8.5%
Cc1ccnc(NC(=O)CNC(=O)c2ccccc2)c1,-10.2%,-1.5%
